High-throughput results from PubChem.
CtBP-E1A blk – qHTS Assay for Inhibitors of the CtBP/E1A Interaction. AlphaScreen GST-E1A/His-CtBP binding, 1536-well; stronger effect = lower value; control for the full effect not named in the record. activity change, % (test concentration not listed). actives 0.49% (n = 340,000). AID 651724, 2012; in the data active means activity change below about -65%; inconclusive means about -30% to -65%; inactive means above about -30%; further: on the % scale 0 is the no-effect control and ±100 the full control effect; compound concentration not given in the record
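Protein mix (5X: 125 nM each GST-E1A, His-CtBP) was incubated with pinned compound 2 h at 37 deg C in dark, in 50 mM Tris pH 8.0 buffer with 300 mM NaCl. Glutathione donor and nickel acceptor beads followed; AlphaScreen signal read after 1 h.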
TRPML1 agonist – qHTS for Agonists of the Human Mucolipin Transient Receptor Potential 1 (TRPML1) | TRPML1-expressing cells, Ca2+ dye fluorescence, FDSS; host cell line not named in the record; reference of the full effect not given here | activation, % (no concentration beside the values) | AID 624414, 2012 | Mucolipin-1 (Homo sapiens), Q9GZU1 | actives 0.12% (n = 410,000); in the data active = activation above about 50%; inconclusive = about 30% to 50%; inactive = below about 30%; further: 0% is about no effect; the text of the record puts the active cut at 80%
Target sequence (Q9GZU1 whole entry, looked up): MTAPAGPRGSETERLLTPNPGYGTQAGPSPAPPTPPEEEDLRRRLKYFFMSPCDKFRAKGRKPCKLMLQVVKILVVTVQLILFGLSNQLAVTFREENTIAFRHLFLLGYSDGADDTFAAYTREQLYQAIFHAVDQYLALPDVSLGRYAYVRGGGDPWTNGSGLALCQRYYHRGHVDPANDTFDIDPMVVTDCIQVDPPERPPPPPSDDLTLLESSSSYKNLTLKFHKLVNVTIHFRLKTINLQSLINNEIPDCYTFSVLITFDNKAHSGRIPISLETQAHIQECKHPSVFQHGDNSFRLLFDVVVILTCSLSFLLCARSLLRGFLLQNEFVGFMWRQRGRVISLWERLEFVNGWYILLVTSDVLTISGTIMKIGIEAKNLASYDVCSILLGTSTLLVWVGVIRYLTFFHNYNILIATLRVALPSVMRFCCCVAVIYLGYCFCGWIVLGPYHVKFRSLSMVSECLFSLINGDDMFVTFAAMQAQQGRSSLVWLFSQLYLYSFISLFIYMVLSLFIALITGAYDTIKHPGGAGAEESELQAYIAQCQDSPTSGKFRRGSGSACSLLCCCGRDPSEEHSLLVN
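Tetracycline-induced TRPML1-DL cells are seeded and incubated overnight before loading with a no-wash Ca2+ dye and quencher. Agonist activity is taken from the 110 s fluorescence read following compound pin-transfer on an FDSS, before EC80 54-4 challenge.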
D2 potentiator – Beta-Arrestin HTS for Positive Allosteric Modulators of the Human D2 Dopamine Receptor: Potentiators. DiscoveRx D2 beta-arrestin cells, luminescence, 90 min; 100% = 57 uM dopamine signal. potentiation, % (concentration not given with the values). actives 0.23% (n = 360,000). AID 624464, 2012; active = potentiation of 50% or more; inconclusive = 30% to 50%; inactive = 30% or less;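 further: compound concentration not given in the record; tested on top of an EC20 dose of dopamine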
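PathHunter beta-arrestin assay in DiscoveRx D2 cells. Compounds were added with an EC20 of dopamine (50 nM final) for 90 min at 37 deg C. Luminescence was read 1 h after detection reagent, with 57 uM dopamine as the EC100 control.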
TRPV1 potentiator – HTS Assay for Compounds that Act as Potentiators of the Vanilloid Receptor 1 | Transient receptor potential cation channel subfamily V member 1 (Homo sapiens), Q8NER1 | TRPV1-expressing cells, Fluo-8 calcium influx, capsaicin EC20 potentiation; host cell line not named in the record; control for the full effect not named in the record | potentiation, % at 8.33 µM | actives 0.02% (n = 320,000) | AID 540277, 2011; active means potentiation above 80%; inconclusive means 30% to 80%; inactive means below 30%; further: 0% is about no effect
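Fluo-8 calcium influx in TRPV1-expressing cells, kinetic read (ex 480/em 520 nm). Compound added and read 3 min for agonist activity, followed by capsaicin at EC20 final and 2 min further read for enhancement.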
TRPML1 inh – qHTS for Inhibitors of the Human Mucolipin Transient Receptor Potential 1 (TRPML1) | TRPML1-inducible cells, Ca2+ dye fluorescence, FDSS; stronger effect = lower value; inhibition of EC80 agonist-evoked calcium signal | activity change, negative = inhibition, % (test concentration not listed) | actives 0.02% (n = 390,000) | AID 624415, 2012; in the data active means activity change below about -50%; inconclusive means about -30% to -50%; inactive means above about -30%;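 further: stimulus is agonist 54-4 at its EC80 concentration; on the % scale 0 is the no-effect control and ±100 the full control effect; compound concentration not given in the record; the text of the record puts the active cut at -80%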
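Calcium fluorescence in TRPML1-DL cells induced overnight with Tet: a 110 s read after compound pin addition, then a 110 s antagonist read after challenge with 54-4 at 4 uM final (EC80).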
Six1-Eya2 inh – qHTS Assay for Inhibitors of the Six1/Eya2 Interaction; Homeobox protein SIX1 (Homo sapiens) + Protein phosphatase EYA2 (Homo sapiens), …; AlphaScreen GST-Six1/His-Eya2 binding, biochemical; stronger effect = lower value; control for the full effect not named in the record; activity change, % (no concentration beside the values); actives 0.56% (n = 360,000); in the data active = activity change below about -65%; inconclusive = about -30% to -65%; inactive = above about -30%; further: on the % scale 0 is the no-effect control and ±100 the full control effect; compound concentration not given in the record
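Six1/Eya2 binding was read as AlphaScreen signal after compounds were pinned into GST-Six1 plus His-tagged Eya2 (5X stock 250/500 nM) in pH 8.0 Tris/NaCl/TCEP buffer, beads added, then incubated 1 h, 37 C, dark.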
* marks the source's active call; other numbers are inactive results; ? = inconclusive; . = not tested or not shown; & = joins results of further samples.

SMILES,Six1-Eya2 inh,TRPML1 agonist,CtBP-E1A blk,TRPML1 inh,D2 potentiator,TRPV1 potentiator
CC(C)c1cc(CN2CCN(CCC#N)CC2)cc(C(C)C)c1O,4,-0.3,-2,-5,-25,.
O=[N+]([O-])c1cccc(C2=NCCS2)c1,7,0.7,12,5,-3,24
Cc1ccsc1/C=c1\sc2ncnn2c1=O,0,-0.3,0,2,-15,10
CC(SCc1ccccc1)C(=O)Nc1ccc2c(c1)OCO2 (stereo not drawn),-1,0.8,-8,5,2,-9
Cc1cccn2c(CN[C@@H]3CCCC[C@H]3c3ccccc3)c(C(=O)N3CCOCC3)nc12,7,-0.7,9,-18,-9,-7
CC1(C)Cc2c(sc3[nH]c(=S)n(Cc4ccccc4)c(=O)c23)CO1,1,-0.6,8,-9,-7,12
CSc1nnc(C)c(=O)n1COC(=O)COc1ccc(F)cc1,-4,-0.5,-9,4,1,-8
CCCN1C(=O)c2ccc(C(=O)NCc3ccco3)cc2C1=O,-15,-0.2,-7,13,3,.
Oc1ccc(C23CC4CC(CC(C4)C2)C3)cc1O,-14,3.6,.,1,-17,3
COCCCNC(=S)Nc1ccc(N2CCCCC2)cc1,-11,-0.1,-6,-4,-9,-4
CCCC(=O)N1CCN(C2=NS(=O)(=O)c3ccccc32)CC1,4,-0.4,4,9,1,-2
Nc1nnc(SCC(=O)NC2CCCCC2)n1-c1ccccc1,6,0.1,13,6,0,-14
NCCC1CN(C(=O)OCc2ccccc2)c2ccccc21 (stereo not drawn),1,2.1,4,29,-2,.
O=c1c2ccccc2nc(/C=C/c2cc(Br)ccc2O)n1CCO,2,0.2,.,-7,-11,.
COc1ccc(NC(=S)NCc2cccnc2)cc1,7,-0.4,5,11,-3,1
CC(C)Oc1ccc(C2CC(=O)NC2=O)cc1 (stereo not drawn),6,0.0,-3,18,-5,8
CCOC(=O)C1CCN(C(=O)c2cccc(NS(=O)(=O)c3ccc(F)c(F)c3)c2)CC1,-14,0.0,8,-4,8,1
C[C@H](CO)N1C[C@H](C)[C@H](CN(C)C(=O)Nc2ccc(C(F)(F)F)cc2)Oc2ncc(-c3cccnc3)cc2C1=O,-4,-0.1,0,20,-2,.
Cc1cccc(C)c1NC(=O)CNC(=O)c1ccc2c(c1)NC(=O)CS2,-3,0.4,0,10,0,.
COc1ccc(CC(=O)OCC(=O)N2c3ccccc3CC2C)cc1OC (stereo not drawn),-2,-0.6,0,5,-9,.
Fc1ccccc1OCCSc1nc2ccccc2o1,83,3.5,105,7,-8,-6
CC1Cc2nc(SCC(N)=O)n(C)c(=O)c2S1 (stereo not drawn),0,0.0,3,15,-4,-8
CCCNC(=O)c1ccc(S(N)(=O)=O)cc1,7,0.3,2,8,-2,8
CN1C[C@@H]2[C@@H]3C(=O)N(C)C(=O)[C@@H]3[C@](C)(C1=O)N2C(=O)c1ccc(Cl)c(Cl)c1,-26,-0.7,-8,-3,-1,.
COc1cccc(NC(=O)COC(=O)c2c(-c3ccccc3)noc2C)c1,2,0.4,3,7,-11,-4
O=C(CCC1CCN(Cc2nccs2)CC1)Nc1ccccc1,1,-0.5,5,-4,-13,.
CCCCCc1ccc(OCCCC[n+]2cccc(C)c2)c(CCCCC)c1,0,0.4,-14,0,-14,-11
O=C(Nc1cccc(Cl)c1)OCc1cn(-c2ccc(Cl)cc2)nn1,4,0.0,-4,3,-16,0
O=C(Nc1ccc(F)cc1F)c1csc(-c2ccccc2)n1,11,8.4,32,23,-3,-2
Cc1nnc(SCCOC(N)=O)n1C,-3,-0.3,3,-4,-22,-8
CCCc1cc(=O)oc2cc(OC(C)C(=O)NCCCn3ccnc3)ccc12 (stereo not drawn),2,-0.9,2,11,-1,-6
COc1ccc(CN2CCC(=O)N([C@H](CO)Cc3ccccc3)CC2)cc1,2,-0.2,-1,-8,-11,-11
CCCCc1nc2cc(C(=O)NCc3nccn3CC)ccc2o1,-1,-0.2,-5,-5,-29,4
COc1ccc(-c2[nH]n(-c3ccc([N+](=O)[O-])cc3)c(=O)c2C=NCC2CCCO2)cc1 (stereo not drawn),1,-0.5,-3,-12,-14,-5
O=C(Cc1csc(N2CCOCC2)n1)N/N=C/c1ccc(O)c(O)c1O,-73*,-0.2,?,3,25,0
Cc1cccc(CN2CCN(C3CN(Cc4cn(Cc5ccc(Cl)cc5)nn4)S(=O)(=O)C3)CC2)c1 (stereo not drawn),14,0.2,-25,.,.,.
O=C(CSc1nnc(-c2ccncc2)s1)Nc1ccc(Cl)c(C(=O)O)c1,-22,-0.1,-16,3,-3,-5
CCOC(=O)N1CCN(C(=O)CSc2ccc(-c3ccccc3OC)nn2)CC1,3,-0.3,-3,15,-1,1
COc1ccc(C(=O)NCc2ccc(-c3nc4ccccc4s3)cc2)cc1OC,-19,0.7,-1,7,-25,8
Cc1ccc(C(=O)NC(=S)NCc2cccnc2)cc1C,6,1.0,-14,22,-8,-14

Just CtBP-E1A blk (three entries from above):
Compound	CtBP-E1A blk
O=C(CSc1nnc(-c2ccncc2)s1)Nc1ccc(Cl)c(C(=O)O)c1	-16
CCOC(=O)N1CCN(C(=O)CSc2ccc(-c3ccccc3OC)nn2)CC1	-3
COc1ccc(C(=O)NCc2ccc(-c3nc4ccccc4s3)cc2)cc1OC	-1

Taken from above:
TRPML1 agonist result of CCOC(=O)N1CCN(C(=O)CSc2ccc(-c3ccccc3OC)nn2)CC1 reads -0.3
Six1-Eya2 inh result of Cc1ccc(C(=O)NC(=S)NCc2cccnc2)cc1C reads 6

Next part
SMILES,Six1-Eya2 inh,TRPML1 agonist,CtBP-E1A blk,TRPML1 inh,D2 potentiator,TRPV1 potentiator
Cn1nnc2cc(C(=O)N3CCSCC3)ccc21,1,0.6,0,2,-3,3
O=C(COc1ccc2ccccc2c1)NC1=NCCS1,-2,-1.5,4,-9,-6,-12
O/C=c1\ccc2cccc3nc(C(F)(F)F)nc1c23,-21,-0.4,?,6,15,-17
COc1cccc(C(=O)Nc2ccc(C)cc2)c1,2,1.2,7,-8,-14,8
COc1ccc(N2C(=O)N3[C@H](c4ccc(Cl)cc4)[C@@H]4C(=O)N(C5CCCCC5)C(=O)[C@@H]4[C@]3(C)C2=O)cc1,8,1.2,-3,-16,-12,?
Cn1nnnc1SCC(=O)Nc1ccc(Oc2ccccc2)cc1,0,2.3,-12,-26,-18,5
COc1ccc(-c2cc(C)no2)cc1S(=O)(=O)Nc1ccc(NC(C)=O)cc1,0,-0.3,-9,3,-13,-6
CN(C)C(=O)CCc1ccc2c3c([nH]c2c1)[C@]1(C)[C@@H](C(=O)N2CCOCC2)C[C@H](CC(=O)NCc2ccco2)C(=O)N1CC3,3,-0.6,2,0,.,.
COC(C(=O)NNS(=O)(=O)c1ccc([N+](=O)[O-])cc1)c1ccccc1 (stereo not drawn),8,0.5,7,41,-1,6
COc1ccc(CN(C(=O)c2ccco2)C2CCS(=O)(=O)C2)cc1 (stereo not drawn),3,0.1,-2,22,27,-9
O=C(Nc1nnc(SCc2ccc(Cl)cc2Cl)s1)C1COc2ccccc2O1 (stereo not drawn),20,2.1,-1,13,-3,.
O=C(CSc1nnnn1-c1ccc(Cl)cc1)N1CCNC1=O,33,2.5,6,48,3,.
CN(Cc1ccc(Cl)cc1)C(=O)CCl,-1,-0.2,7,5,-24,8
O=C1CC[C@@H](C(=O)N2CSC[C@@H]2C(=O)Nc2ccc(C(F)(F)F)cc2)N1,9,0.2,3,1,-28,.
COCc1[nH]nc2c1C(c1c(F)cccc1Cl)C(C#N)=C(N)O2 (stereo not drawn),9,1.3,-3,-6,-17,?
Cc1nc2ccccn2c1C(=O)NCCCN1CCOCC1,0,-0.5,-2,6,-17,4
COCCCNC(=O)C12CCC(C)(C(=O)C1)C2(C)C (stereo not drawn),4,2.7,3,16,-13,1
O=C(NCCCN1CCCC1=O)c1ccc2c(c1)NC(=O)C(N1CCOCC1)S2 (stereo not drawn),-4,-1.0,10,6,13,?
COc1ccc(NC(=O)Cn2c(C)cc(=O)c3ccccc32)cc1,-4,0.6,.,22,-18,-5
Cc1c(O)ccc(NC(=O)/C=C/c2ccccc2)c1C,-8,0.0,-14,-1,1,-16
CCOC(=O)c1nn(-c2ccc(F)cc2)c2nc(-c3ccccc3)c(C#N)c(=O)n12,7,4.5,11,21,-1,9
Cc1cc(=O)oc2cc(OC(C)C(=O)N3CCOCC3)ccc12 (stereo not drawn),2,-0.1,4,-6,-11,27
CN(C)S(=O)(=O)c1cc(NC(=O)COC(=O)Cc2cccc3ccccc23)ccc1Cl,-3,-0.4,-1,14,-3,5
Cc1sc(NC(=O)CSc2nc(N)n(CC(=O)c3ccccc3)n2)c(C#N)c1C,-5,1.4,-4,-10,5,7
Cc1ccc2nc(-c3cccnc3)c(Nc3ccccc3C)n2c1,-12,2.7&1.6,-13,-13&-12,-5,-2
CCOC(=O)c1c(NCc2ccccc2)n[nH]c1C,3,-0.6,-11,-2,7,-26

Records listed so far printed as active in Six1-Eya2 inh:
molecule | Six1-Eya2 inh | CtBP-E1A blk | TRPML1 inh | D2 potentiator
O=C(Cc1csc(N2CCOCC2)n1)N/N=C/c1ccc(O)c(O)c1O | -73* | ? | 3 | 25
